Measles inh – inhibitors of measles virus growth in infected cells | AID 745 | 33,000 compounds, 0.1% hits | z-score (no concentration beside the values) | infected Vero cells, GFP fluorescence, 64 h; active compounds read low;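 active = z-score under -3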;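 note: score is relative to mean and SD of the compound wells of a plate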
* = called active by the depositor. This is a subset (hit frequency here may not be typical).

Measles inh	molecule
0.98	COc1ccc(CNC(=O)C2CCN(S(=O)(=O)N3CCC(C)CC3)CC2)c(OC)c1
-0.5	COc1ccccc1N1CCN(c2ncnc3sc(C(=O)N4CCCCC4C)c(C)c23)CC1 (stereo not drawn)
-1.2	CC1CCN(c2cccc3c2C(=O)c2ccccc2C3=O)CC1
0.24	Cc1ccc(Cl)c2c(C)cc(Cl)nc12
1.6	CC1CCCCN1C(=O)C1CC=CCC1C(=O)O (stereo not drawn)
1.1	O=C(Cc1c(C(=O)O)[nH]c2ccccc12)NCC1CCCO1 (stereo not drawn)
6.3	O=C(c1cccn2c(=O)c3ccccc3nc12)N1CCN(c2ccccn2)CC1
-1.7	Cc1ccc(-c2cc(C(=O)N3CC(C)CC(C)C3)c3ccccc3n2)o1 (stereo not drawn)
-0.02	O=C1C(=O)N(CCCN2CCOCC2)C(c2ccncc2)/C1=C(\O)c1ccc(F)cc1 (stereo not drawn)
1.2	O=C(Nc1nc2c(s1)C(=O)CCC2)c1ccccc1Cl
1.2	CC(C)c1ccc(S(=O)(=O)N2CCN(CC(=O)Nc3ccccc3C(F)(F)F)CC2)cc1
-0.43	Nc1cc(=O)nc(SCC(=O)Nc2nc3ccccc3s2)n1-c1ccccc1
0	COCCn1c(SCC(N)=O)nc2c(c1=O)SC(C)C2 (stereo not drawn)
-0.2	Cc1nccn1CCC(N)=O
1.3	COc1ccccc1C=CC1Nc2ccccc2C(=O)N1c1ccccc1C (stereo not drawn)
2.1	Cc1ccccc1-n1nc2c(c1NC(=O)c1ccc3c(c1)OCO3)CS(=O)(=O)C2
1.7	COc1ccc(N2C(=O)C(N3C(=O)c4ccc([N+](=O)[O-])cc4C3=O)C2c2cc(Br)ccc2OC)cc1 (stereo not drawn)
-0.01	CCOC(=O)C1=C(C)NC2=C(C(=O)c3ccccc32)C1c1ccc(C(C)C)cc1 (stereo not drawn)
0.1	Cc1c(Cl)cccc1NS(=O)(=O)c1ccccc1[N+](=O)[O-]
0.26	Cc1cccn2c(=O)c3cc(C(=O)NC(C)c4ccccc4)c(=N)n(C4CCCCC4)c3nc12 (stereo not drawn)
0	O=C(Nc1c2c(nn1-c1ccc(F)cc1)CS(=O)C2)c1ccc(S(=O)(=O)N2CCOCC2)cc1 (stereo not drawn)
-0.26	Cc1nnc(NC2CCCCC2)n(C)c1=O
1.6	CCOc1ccc(-n2c(SCC(=O)N3CCCCCC3)nc3c([nH]c4ccccc43)c2=O)cc1
0.28	Cc1cccc(Oc2ccc(N3C(=O)C4C5C=CC(C6CC56)C4C3=O)cc2)c1 (stereo not drawn)
-1.2	Cc1ccccc1OCC(=O)Nc1ccc(S(N)(=O)=O)cc1
1.2	COc1ccccc1N1CCN(C(=O)c2ccc(Sc3ccc(C)cc3)c(NC(C)=O)c2)CC1
-1.7	CCCn1c2ccccc2c2nc3cc(OC)c(OC)cc3nc21
0.07	CC1CC(C)(C)NC(=S)N1CC(=O)NCCCN1CCN(c2ccccc2F)CC1 (stereo not drawn)
-0.83	O=C(CCn1c(=S)[nH]c2ccsc2c1=O)NC1CC1
0.26	O=C(NCCO)c1ccn[nH]1
-0.41	CCOC(=O)c1cnc2c(C)cc(C)cc2c1Nc1ccccc1OC
-0.85	O=C(NCC1CCCO1)C1CCN(S(=O)(=O)N2CCCCC2)CC1 (stereo not drawn)
-0.26	CCC(Cc1ccccc1)NS(=O)(=O)c1ccc2c(c1)CCN2C(=O)C1CC1 (stereo not drawn)
-0.24	C=CCOC(=O)Oc1ccc2c(=O)c(Oc3cc(C)c(Cl)c(C)c3)coc2c1
-0.99	O=C(O)CCNc1cc(Cl)ccc1Oc1ccc(Cl)cc1
-0.43	Cc1c(SCCO)c(=O)[nH]c2cc3c(cc12)OCO3
0.26	COc1ccccc1N1CCN(C(=O)CN(c2ccc(Br)cc2)S(=O)(=O)c2ccc(C)cc2)CC1
-1.6	COc1cc(SC)ccc1C(=O)Nc1ccc(S(=O)(=O)N2CCC(C)CC2)cc1
0.09	O=C1C2C3C=CC(C3)C2C(=O)N1CCC(=O)N1CCc2ccccc21 (stereo not drawn)
0.35	O=C1CC(c2ccc(Cl)cc2)CC2=C1C(c1cc3c(cc1Br)OCO3)Nc1ccccc1N2 (stereo not drawn)

Given with bars between the fields: 2 of the compounds above.
smiles | Measles inh
CCC(Cc1ccccc1)NS(=O)(=O)c1ccc2c(c1)CCN2C(=O)C1CC1 (stereo not drawn) | -0.26
C=CCOC(=O)Oc1ccc2c(=O)c(Oc3cc(C)c(Cl)c(C)c3)coc2c1 | -0.24

Next part:
Measles inh	molecule
2	CC1CC(Nc2ncnc3c2c(-c2ccccc2)cn3-c2ccccc2)CC(C)(C)C1 (stereo not drawn)
-0.63	CNC(=O)c1cc2c(=O)n3cccc(C)c3nc2n(CC2CCCO2)c1=N (stereo not drawn)
1.7	O=C1c2cccc3c(N4CCCCC4)ccc(c23)C(=O)N1c1ccccc1
0.76	CCCC(NS(=O)(=O)c1cccc2nsnc12)C(=O)O (stereo not drawn)
0.4	CCOc1ccc(NC(=O)C2CCN(S(=O)(=O)c3ccc(OC)c4ncccc34)CC2)cc1
1.2	COC(=O)C1C(=O)C2=C(CC1C)NC(C)=C(C(=O)OC(C)C)C2c1ccc(OC)c(OC)c1 (stereo not drawn)
-0.95	Cc1nc(NCC(C)C)c2sc3nc4c(cc3c2n1)COC(C)(C)C4
-0.05	O=C(O)c1cc(S(=O)(=O)N2CCCC2)ccc1F
0.56	Cc1cccc(NC(=O)c2ccc(F)c(S(=O)(=O)NCc3ccco3)c2)c1
-0.36	CC(=O)NC1C(=O)N=C(SCc2ccccc2)NC1=O (stereo not drawn)
0.17	CCN1CCN(C(=O)c2cc3cc4cc(OC)ccc4nc3s2)CC1
-0.42	COc1ccccc1CC(=O)Nc1nc2ccc(S(C)(=O)=O)cc2s1
0.72	COc1ccc(-c2n[nH]c(=S)n2-c2ccc(C)cc2)cc1
0.25	Cc1sc2ncn(CC(=O)Nc3ccc(F)cc3)c(=O)c2c1S(=O)(=O)N1CCCCC1
-0.38	COc1ccc(C)cc1NS(=O)(=O)c1ccc(NS(=O)(=O)c2ccc3c(c2)OCCO3)cc1
0.6	CCOc1ccc(NC(=O)Cn2c(C)nc3sc(C)c(C)c3c2=O)cc1
1.2	CCOc1ccccc1N(C)C(=O)C1c2cc(OC)c(OC)cc2C(=O)N(C)C1c1cccnc1 (stereo not drawn)
-0.63	O=C(c1ccccc1)N1CCCC(C(=O)N2CCC(Cc3ccccc3)CC2)C1 (stereo not drawn)
0.76	Cc1nc(N2CCOCC2)c2c(C)c(C(=O)NC(C)C)sc2n1
-0.2	CCCCn1c(=NC(=O)c2ccccc2F)c(C(=O)OCC)cc2c(=O)n3ccccc3nc21
-0.86	CCCCCOC(=O)C1=C(C)NC2=C(C(=O)CCC2)C1c1cc(OC)c(OC)cc1Br (stereo not drawn)
-0.33	N#Cc1sc2nc(-c3ccccc3)c3c(c2c1N)CCCC3
0.07	CCOc1ccc(C=Nc2cccc([N+](=O)[O-])c2)c(O)c1
-0.32	C=CCOC(=O)C1=C(C)Nc2nnnn2C1c1cccc(OC)c1 (stereo not drawn)
-0.21	CC1(C)CC(c2csc(N)n2)CCO1 (stereo not drawn)
0.64	CCOC(=O)C1CCC(CN(Cc2cccc(Br)c2)S(=O)(=O)c2ccc(C)cc2)CC1 (stereo not drawn)
-1.3	O=C(O)Cc1ccc(-n2c(=S)[nH]c3ccsc3c2=O)cc1
-0.17	COc1ccc(C2SCCN2C(=O)c2ccc([N+](=O)[O-])cc2)cc1 (stereo not drawn)
0.73	CCOC(=O)c1c(NC(=O)c2ccc([N+](=O)[O-])c(C)c2)sc(C)c1C
0.43	COc1ccccc1C1NC(=O)NC(C)=C1C(=O)OCC(C)C (stereo not drawn)
1.1	CCN1C(=O)c2ccccc2Sc2ccc(C(=O)NCc3ccc(OC)cc3OC)cc21
-0.98	COc1ccccc1NC(=O)c1sc(=S)n(CCc2ccccc2)c1N
0.41	COc1ccc(NC(=O)c2sc(=S)n3c2[nH]c(=O)c2ccccc23)cc1OC
-0.36	O=C(CSc1nnc(-c2ccncc2)n1C1CCCCC1)Nc1ccc(F)cc1
1.3	COc1ccc(C2CC(C(F)(F)F)n3ncc(C(=O)N(C)CCc4ccccn4)c3N2)cc1OC (stereo not drawn)
-0.12	O=C(c1cc(-c2ccccc2)nc2ccccc12)N1CCc2ccccc21
0.22	O=c1oc(C=Cc2ccc([N+](=O)[O-])cc2)nc2ccccc12
-0.75	Cc1cc(-c2ccccc2)nc2ccc3ccccc3c12
-0.58	O=C(NCc1cccnc1)c1cc(-c2cccnc2)nc2ccccc12
-0.04	Cc1ccccc1N(CCCN1C(=O)c2cccc3cccc(c23)C1=O)C(=O)c1ccc([N+](=O)[O-])cc1
-0.62	CCOC(=O)C1CCN(C(=O)Cn2ccc3ccccc3c2=O)CC1
-0.7	CCN1CCCC1CNC(=O)C1c2ccccc2C(=O)N(CCOC)C1c1c[nH]c2ccccc12 (stereo not drawn)
1.2	COc1ccc(-c2cc(C(=O)OC(C)C)c3cc(Br)ccc3n2)cc1
-0.85	COc1ccccc1CN1CCN(S(C)(=O)=O)CC1
0.97	Cc1ccc(NC(=O)CSc2nc3ccccc3c(=O)n2CCCN2CCC(C)CC2)cc1
-0.48	COc1cccc(NC(=O)C2(S(=O)(=O)c3ccc(C)cc3)CC2)c1
0.83	CC1CCN(S(=O)(=O)c2ccc3[nH]c(=O)cc(C(=O)NCCN(C)Cc4ccccc4)c3c2)CC1
2	CC1(C)CC(N=Cc2ccccc2O)CC(C)(C)N1
0.64	Cc1ccc(S(=O)(=O)N=C(CN2CCCC2)N2CCCCC2)cc1
-0.03	O=C(NCCN1CCOCC1)c1cccn2c(=O)c3ccc(Cl)cc3nc12
-1.1	CC1C=CCC2C(=O)N(c3cccc(O)c3)C(=O)C12 (stereo not drawn)
0.48	CCOC(=O)C1=C(C)NC(=S)NC1c1ccc(SC)cc1 (stereo not drawn)
-0.97	CC(=O)c1ccc(N2CCCCC2)c(F)c1
1.1	CCCn1cc(SCC(=O)Nc2ccc(Br)cc2)c2ccccc21
-1.9	CCN(CC)C(=O)CSc1cc(=O)n(C)c2ccc(Cl)cc12
-0.38	OCCCNc1ncnc2c1c(-c1ccccc1)cn2-c1cccc(Cl)c1
-0.08	COC(=O)c1ccc(C2N=C(c3ccc(Cl)cc3)CC(c3cccc(OC)c3O)N2)cc1 (stereo not drawn)
0	Cc1ccc(/C(O)=C2\C(=O)C(=O)N(CCN(C)C)C2c2ccncc2)cc1 (stereo not drawn)
0.19	CN(C(=O)c1cnc2sccn2c1=O)c1ccccc1
1.5	C=C(C)CSc1nc2c(c(=O)[nH]c(=O)n2C)n1Cc1ccccc1Cl

(more compounds)
Measles inh	molecule
-0.43	O=C(NCc1ccc(Cl)cc1)c1ccc2c(=O)n(CCc3ccccc3)c(=S)[nH]c2c1
1.9	CCCCCn1c(=O)c(-c2ccccc2)c(O)c2ccccc21
2.1	Cc1oc(C(C)(C)C)cc1C(=O)NCCNc1c(Cl)cccc1[N+](=O)[O-]
0.07	CN1CCN(CCCNC(=O)c2cc3c(=O)oc4ccccc4c3s2)CC1
-2.8	CCS(=O)(=O)N1CCCC(C(=O)NC2CC2)C1 (stereo not drawn)
1.5	COc1ccc(OC)c(-c2cc(C(=O)NCc3cccnc3)no2)c1
0.02	CSc1ccc(C2C(C(=O)OCc3ccccc3)=C(C)N=C3SC(C)C(=O)N32)cc1 (stereo not drawn)
0.38	CSC1=NC(=Cc2ccc3c(c2)OCO3)C(=O)S1
1.8	CC1=C(C)CS(=Nc2ccccc2)N(S(=O)(=O)c2ccccc2)C1 (stereo not drawn)
1.4	COc1ccc(-n2nc(C(=O)NCC(=O)NC3CCCCC3)c3ccccc3c2=O)c(OC)c1
-1.5	Cc1ccc(C2c3c(-c4ccccc4)n[nH]c3C(=O)N2c2ccccc2)cc1 (stereo not drawn)
0.48	Cc1ccc(C2=Nn3cnnc3SC2)cc1
-0.18	COc1cc(C=Nc2ccc(C)cc2C)cc(OC)c1OC
-0.3	CCOC(=O)c1cc2c(=O)n3ccccc3nc2n(CCOC)c1=NC(=O)c1cccc([N+](=O)[O-])c1
1.1	O=C(Nc1nnc(-c2cccnc2)s1)c1ccccc1
0.54	CC1CCc2c(nc3ccc4ccccc4c3c2-c2ccccc2O)C1 (stereo not drawn)
-0.5	CCc1nnc(NC(=O)c2ccc(S(=O)(=O)N3CCCCC3C)cc2)o1 (stereo not drawn)
-0.65	COc1ccccc1NC(=O)c1ccc(Br)c(S(=O)(=O)N2CCCC2)c1
-0.54	Cc1ccccc1OCCCCCCN1CCCCC1
-0.31	O=C(Nc1ncn[nH]1)c1cccc(F)c1

Shown with each value named: three of the compounds above.
COc1ccccc1NC(=O)c1ccc(Br)c(S(=O)(=O)N2CCCC2)c1
- Measles inh = -0.65

Cc1ccccc1OCCCCCCN1CCCCC1
- Measles inh = -0.54

O=C(Nc1ncn[nH]1)c1cccc(F)c1
- Measles inh = -0.31

(listing goes on)
Measles inh	molecule
0.39	COc1ccc(NC(=O)N(C2CCCCC2)C(C)c2cccs2)c(OC)c1 (stereo not drawn)
-0.64	O=C(NC(=O)c1c(Cl)cc(Cl)nc1Cl)Nc1ccc(Cl)cc1
0.63	O=C1c2cccc([N+](=O)[O-])c2C(=O)N1c1cc([N+](=O)[O-])ccc1Cl
-0.23	C(=Cc1nc(N2CCOCC2)c2ccccc2n1)c1ccccc1
-0.3	CCC(Sc1ncccc1C(=O)O)C(=O)Nc1cccc(Cl)c1 (stereo not drawn)
0.89	O=C1CCCN(c2ccc(C(F)(F)F)cc2)N1

By substructure: the compounds so far containing bromine (eight)
Measles inh	molecule
1.7	COc1ccc(N2C(=O)C(N3C(=O)c4ccc([N+](=O)[O-])cc4C3=O)C2c2cc(Br)ccc2OC)cc1 (stereo not drawn)
0.26	COc1ccccc1N1CCN(C(=O)CN(c2ccc(Br)cc2)S(=O)(=O)c2ccc(C)cc2)CC1
0.35	O=C1CC(c2ccc(Cl)cc2)CC2=C1C(c1cc3c(cc1Br)OCO3)Nc1ccccc1N2 (stereo not drawn)
-0.86	CCCCCOC(=O)C1=C(C)NC2=C(C(=O)CCC2)C1c1cc(OC)c(OC)cc1Br (stereo not drawn)
0.64	CCOC(=O)C1CCC(CN(Cc2cccc(Br)c2)S(=O)(=O)c2ccc(C)cc2)CC1 (stereo not drawn)
1.2	COc1ccc(-c2cc(C(=O)OC(C)C)c3cc(Br)ccc3n2)cc1
1.1	CCCn1cc(SCC(=O)Nc2ccc(Br)cc2)c2ccccc21
-0.65	COc1ccccc1NC(=O)c1ccc(Br)c(S(=O)(=O)N2CCCC2)c1
